Calb FLC = C. albicans growth modulation with fluconazole. C. albicans CaCi-2 (fluconazole-resistant clinical isolate) + fluconazole, Alamar Blue growth, 48 h. hit rate 0.57% among 300,000. growth inhibition, % (test concentration not listed). AID 1979;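 active = most replicates above 75%; inconclusive = exactly half above 75%; inactive = most below 75%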;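 note: all wells also contain fluconazole at 8 µg/ml as a sub-toxic cotreatment; 0% = median of DMSO wells and 100% = median of geldanamycin control wells; wells of about 8 µL received 7.5 nL stock; the first replicate is given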
T cruzi inh = T. cruzi replication inhibition; T. cruzi beta-gal in NIH3T3, luminescence, 90 h; inhibition, % (concentration not given with the values); hit rate 1.4% among 300,000;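 active = mean inhibition across valid replicates above about 55%, limit read from the data; inconclusive = mean below that limit but half or more replicates reach it; inactive = mean below it, under half of replicates reach it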;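 note: signal also drops with host cell toxicity which is not excluded here; 0% = plate median of DMSO wells and 100% = zero luminescence signal; higher percent means less beta-gal luminescence so fewer parasites; stock transfer was 50 nL into about 50 µL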
LANA-H2B inh = blocks KSHV LANA binding to histone H2A/H2B; Q9QR71; AID 2629; cell-free LANA-H2A/H2B peptide, fluorescence polarization; hit rate 0.6% among 320,000; inhibition, % (no concentration beside the values); in the data active = inhibition mostly above about 10%, no sharp cut-off; inactive = mostly below about 6.7%;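 note: stock transfer was 7.5 nL into about 10 µL; 0% = median of vehicle wells and 100% = median of positive control wells; one replicate is shown; the record names a cut of 25% in any replicate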
RanGTP-Impb inh = disruptors of Ran-importin-beta complex formation – biochemical, FRET, CFP-Ran, YFP-importin-beta, homogeneous, primary screen | AID 2216 | inhibition, % (no concentration beside the values) | hit rate 1.1% among 300,000 | cell-free CFP-Ran/YFP-importin-beta FRET ratio;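 active = most replicates above 15%; inconclusive = exactly half above 15%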;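 note: 0% = DMSO wells and 100% = Ran loaded with GDP instead of GTP; wells of about 40 µL received 100 nL stock; the first replicate is given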
UCH37 inh = human UCH37 deubiquitinating enzyme inhibition | Q9Y5K5 | purified proteasome/UCH37, Ub-AMC cleavage fluorescence | inhibition, % (no concentration beside the values) | hit rate 0.33% among 330,000 | AID 588478;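 active = mean of two replicates above 20%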;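 note: 0% = compound-free wells with enzyme and 100% = wells lacking proteasome; stock transfer was 100 nL into about 20 µL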
Target sequence (Q9Y5K5 whole entry, looked up): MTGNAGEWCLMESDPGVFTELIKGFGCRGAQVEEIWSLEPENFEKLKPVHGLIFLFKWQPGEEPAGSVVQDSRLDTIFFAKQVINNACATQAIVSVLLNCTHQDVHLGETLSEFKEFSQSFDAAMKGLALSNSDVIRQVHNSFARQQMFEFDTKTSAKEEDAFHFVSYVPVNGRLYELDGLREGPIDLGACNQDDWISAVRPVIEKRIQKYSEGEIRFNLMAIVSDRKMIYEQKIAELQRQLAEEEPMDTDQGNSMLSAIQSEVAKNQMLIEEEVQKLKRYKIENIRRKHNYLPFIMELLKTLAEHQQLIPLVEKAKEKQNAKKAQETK
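Material: human UCH37 enzyme supplied as purified proteasome complex. Measure: % inhibition of Ub-AMC cleavage fluorescence. Medium: pH 7.4 Tris-HCl (50 mM) with ovalbumin, ATP-MgCl2, DTT. Times: 30 min preincubation with enzyme, 25 min cleavage at room temperature. Detection: AMC fluorescence intensity at 355/460 nm.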
Beta cell apopt = blocks beta cell apoptosis. protection from apoptosis, % (test concentration not listed). hit rate 0.8% among 300,000. INS-1E cytokine-induced death, ATP luminescence, 48 h; percent of positive-control rescue, neutral wells zero;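 active = all replicates at 75% or more, or half of them and the mean; inconclusive = half reach 75% but not the mean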;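 note: 0% = cytokine-treated negative control wells and 100% = positive control rescue; higher means more ATP so stronger rescue from cytokine killing; wells of about 40 µL received 100 nL stock; the first replicate is given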
A1 inh = inhibitors of the anti-apoptotic protein A1, read as caspase activation; MEF A1-2A-BIM cells, Caspase-Glo 3/7 luminescence, 3 h; percent of clofoctol response, vehicle zero; caspase activation, % (no concentration beside the values); hit rate 0.066% among 330,000;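 active = over half of replicate activation scores above 10%, or exactly half above 10 with the replicate mean above 10; inconclusive = replicate mean below 10 yet half the replicates above 10; inactive = over half of replicates below 10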;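 note: wells of about 30 µL received 50 nL stock; many hits fall short of the cut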
B2AR ag = human beta-2 adrenergic receptor agonism by FAP. Am2.2-beta2AR cells, FAP receptor internalization, flow cytometry; reference of the scale not given here. response, % (concentration not given with the values). hit rate 0.43% among 340,000. AID 504454;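 active = response above a set limit, near 3 SD of response in nonfluorescent compounds, cut at about 42% in these data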;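 note: stock transfer was 100 nL into about 11 µL; a reference agonist was the positive control; negative values mostly stem from fluorescent compounds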
Target sequence (P07550 whole entry, looked up): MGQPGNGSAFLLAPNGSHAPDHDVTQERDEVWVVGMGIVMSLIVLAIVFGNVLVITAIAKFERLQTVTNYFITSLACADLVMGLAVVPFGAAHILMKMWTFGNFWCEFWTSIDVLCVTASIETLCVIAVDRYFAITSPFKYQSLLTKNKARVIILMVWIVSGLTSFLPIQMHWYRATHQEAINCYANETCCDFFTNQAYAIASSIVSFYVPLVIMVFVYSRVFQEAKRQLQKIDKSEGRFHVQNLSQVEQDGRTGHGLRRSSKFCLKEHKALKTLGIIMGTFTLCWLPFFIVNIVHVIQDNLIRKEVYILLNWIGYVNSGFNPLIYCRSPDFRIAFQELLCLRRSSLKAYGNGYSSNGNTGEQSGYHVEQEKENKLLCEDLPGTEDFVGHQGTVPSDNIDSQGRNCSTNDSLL
An asterisk follows results filed as active. No enrichment for hits (roughly 4.3% active in at least one column).

`CCCCNS(=O)(=O)c1ccc2nc(-c3cccnc3)cc(C(=O)NC3CCCC3)c2c1` gave Calb FLC -19, T cruzi inh 12, LANA-H2B inh -1.1, RanGTP-Impb inh -2.5, UCH37 inh 6.0, Beta cell apopt 7, A1 inh 0.7 and B2AR ag -3.
`CCOC(=O)c1c(-c2ccc(OC)cc2)cn2ccccc12` gave Calb FLC 26, T cruzi inh 6, LANA-H2B inh 1.0, RanGTP-Impb inh 0.0, UCH37 inh -265, Beta cell apopt 0, A1 inh 0.3 and B2AR ag -6.
`N#CC(C#N)=C1C=CC=CN1/C(=C\c1ccco1)C(=O)c1ccc(Cl)cc1` gave LANA-H2B inh -2.6, UCH37 inh -20, Beta cell apopt 52, A1 inh 1.8 and B2AR ag 58*.
Screening O=c1c2ccccc2nnn1CSc1nnc(-c2cccs2)n1Cc1ccccc1 returned Calb FLC 11, T cruzi inh 3, LANA-H2B inh 1.9, RanGTP-Impb inh -3.0, UCH37 inh 0.4, Beta cell apopt 2, A1 inh 1.0 and B2AR ag -1.
`Cc1cc(NC(=O)COC(=O)C2CCC(=O)N2)c([N+](=O)[O-])cc1C` (stereo unspecified) gave Calb FLC 3, T cruzi inh -5, LANA-H2B inh 2.1, RanGTP-Impb inh 2.3, UCH37 inh 6.0, Beta cell apopt -1, A1 inh 1.0 and B2AR ag 1.
Cc1ccn(CC(=O)N2N=C(C(F)F)CC2(O)C(F)F)n1 (stereo unspecified) was read as Calb FLC -6, T cruzi inh -3, LANA-H2B inh 1.8, RanGTP-Impb inh 2.6, UCH37 inh 1.7, Beta cell apopt 9, A1 inh -0.2 and B2AR ag 2.
For CCN(CC)S(=O)(=O)c1ccc(Cl)c(C(=O)NCCN2CCOCC2)c1 the results were Calb FLC -7, T cruzi inh -12, LANA-H2B inh 0.2, RanGTP-Impb inh 5.5, UCH37 inh 2.7, Beta cell apopt -2, A1 inh 0.8 and B2AR ag -9.
`O=C1CSC(c2cccc([N+](=O)[O-])c2)N1c1c(F)cccc1F` (stereo unspecified) gave Calb FLC -1, T cruzi inh 1, LANA-H2B inh -0.5, RanGTP-Impb inh 0.5, UCH37 inh 1.6, Beta cell apopt -6, A1 inh -0.4 and B2AR ag 4.
For CC(C)CCn1nnnc1C(c1ccccc1)N1CCN(C)CC1 (stereo unspecified) the results were Calb FLC -7, T cruzi inh 17, LANA-H2B inh 3.2, RanGTP-Impb inh -0.3, UCH37 inh -0.6, Beta cell apopt -4, A1 inh -0.5 and B2AR ag 2.
For Cc1ccc(S(=O)(=O)N(CC(=O)N2CCCCCC2)c2ccccc2F)cc1 the results were Calb FLC 3, T cruzi inh 6, LANA-H2B inh -1.6, RanGTP-Impb inh -5.0, Beta cell apopt 0, A1 inh 0.3 and B2AR ag -5.
`COc1ccc(NC(=O)Cc2ccc(C)cc2)c([N+](=O)[O-])c1` gave Calb FLC -21, T cruzi inh 3, LANA-H2B inh 1.5, RanGTP-Impb inh -2.5, UCH37 inh 1.6, Beta cell apopt -3, A1 inh 0.5 and B2AR ag 5.
Screening O=C(c1ccccc1[N+](=O)[O-])N1N=C(c2ccccc2)CC1(O)C(F)(F)F (stereo unspecified) returned Calb FLC -5, T cruzi inh -20, LANA-H2B inh -1.3, RanGTP-Impb inh -0.1, UCH37 inh 2.9, A1 inh 0.2 and B2AR ag -5.
CCn1cc(C(=O)NCc2ccc3c(c2)OCO3)c(=O)c2cc(F)c(N3CCN(C)CC3)cc21 was read as Calb FLC 27, T cruzi inh 60*, LANA-H2B inh -3.8, RanGTP-Impb inh 0.1, UCH37 inh -45, Beta cell apopt 4, A1 inh -0.1 and B2AR ag 18.
Screening CC(=O)c1c(C)n(-c2ccc(Cl)cc2)c2ccc(O)cc12 returned Calb FLC 5, T cruzi inh 0, LANA-H2B inh -0.6, RanGTP-Impb inh 0.1, UCH37 inh 2.6, Beta cell apopt -8, A1 inh 0.3 and B2AR ag 0.
COc1cc(NC(=O)C(=O)NCCN(C)C)c(OC)cc1Cl was read as Calb FLC 18, T cruzi inh 12, LANA-H2B inh 9.2, RanGTP-Impb inh -0.6, UCH37 inh 4.5, Beta cell apopt 2, A1 inh 0.2 and B2AR ag 7.
For COc1ccc(N(CC(=O)N2CCN(c3ccc(F)cc3)CC2)S(=O)(=O)c2c(C)noc2C)cc1 the results were Calb FLC 10, T cruzi inh 15, LANA-H2B inh 3.1, RanGTP-Impb inh 0.6, UCH37 inh 4.3, Beta cell apopt 0, A1 inh 0.1 and B2AR ag 0.
Screening CC(C)n1c(SC2C(=O)CC(C)(C)CC2=O)nc2c1c(=O)n(C)c(=O)n2C returned Calb FLC -4, T cruzi inh 1, LANA-H2B inh 4.2, RanGTP-Impb inh 0.8, UCH37 inh 2.5, Beta cell apopt -4, A1 inh 0.2 and B2AR ag 0.
CCOC(=O)CCNC(C(=O)OCC)c1ccccc1 (stereo unspecified) was read as Calb FLC 9, T cruzi inh -2, LANA-H2B inh 7.6, RanGTP-Impb inh -1.1, UCH37 inh 0.5, Beta cell apopt -10, A1 inh 0.2 and B2AR ag 0.
O=C(Cc1ccccn1)c1ccc(O)cc1O was read as Calb FLC -3, T cruzi inh -1, LANA-H2B inh -0.5, RanGTP-Impb inh 0.4, UCH37 inh 6.2, Beta cell apopt -9, A1 inh 2.3 and B2AR ag 26.
CCn1nnc(-c2ccccc2NC(=O)c2cccc(-n3cnnn3)c2)n1 was read as Calb FLC -4, T cruzi inh 13, LANA-H2B inh 2.3, RanGTP-Impb inh 2.5, UCH37 inh -71, A1 inh 0.1 and B2AR ag -4.
For O=C(CSCc1ccc(Cl)cc1)N1CCN(Cc2ccc3c(c2)OCO3)CC1 the results were Calb FLC -3, T cruzi inh 5, LANA-H2B inh 1.1, RanGTP-Impb inh -1.6, UCH37 inh 1.6, Beta cell apopt -1, A1 inh -1.7 and B2AR ag 0.
c1ccc(-c2nc(N3CCCCCC3)nc(-n3ccnc3)n2)cc1 was read as Calb FLC -22, T cruzi inh 53, LANA-H2B inh -5.1, RanGTP-Impb inh 1.9, UCH37 inh -0.8, Beta cell apopt 2, A1 inh -0.3 and B2AR ag -2.
COc1ccc(S(=O)(=O)n2c([N+](=O)[O-])cnc2C)cc1OC was read as Calb FLC -2, T cruzi inh -4, LANA-H2B inh -1.9, RanGTP-Impb inh 2.8, UCH37 inh 4.7, A1 inh 0.0 and B2AR ag 3.
Cn1c(Cn2c(=O)sc3ccccc32)nnc1SCc1ccccc1F was read as Calb FLC 4, T cruzi inh 16, LANA-H2B inh 5.4, RanGTP-Impb inh -1.3, UCH37 inh 0.6, Beta cell apopt -6, A1 inh 0.5 and B2AR ag -19.

The closing 2 records of the part before are carried over, then new ones follow.
COc1ccc(S(=O)(=O)n2c([N+](=O)[O-])cnc2C)cc1OC was read as Calb FLC -2, T cruzi inh -4, LANA-H2B inh -1.9, RanGTP-Impb inh 2.8, UCH37 inh 4.7, A1 inh 0.0 and B2AR ag 3.
Cn1c(Cn2c(=O)sc3ccccc32)nnc1SCc1ccccc1F was read as Calb FLC 4, T cruzi inh 16, LANA-H2B inh 5.4, RanGTP-Impb inh -1.3, UCH37 inh 0.6, Beta cell apopt -6, A1 inh 0.5 and B2AR ag -19.
O=C1OC2CCC1(c1ccccc1)C2 (stereo unspecified) was read as Calb FLC 2, T cruzi inh 5, LANA-H2B inh -6.5, RanGTP-Impb inh 0.5, UCH37 inh 2.0, Beta cell apopt 1, A1 inh -0.4 and B2AR ag 1.
`CCCC1COC(Cn2cncn2)(c2ccc(C)cc2)O1` (stereo unspecified) gave Calb FLC 18, T cruzi inh inconclusive, LANA-H2B inh 2.3, RanGTP-Impb inh -4.5, UCH37 inh 1.0, Beta cell apopt 3, A1 inh 0.4 and B2AR ag -4.
Screening Cc1cc([N+](=O)[O-])cc(/C=N/n2c(C)nc3ccccc3c2=O)c1O returned Calb FLC -2, T cruzi inh 4, LANA-H2B inh -1.5, RanGTP-Impb inh -1.4, Beta cell apopt -2, A1 inh 0.1 and B2AR ag 11.
CC(C)(C)NC(=O)CSc1nnc(C2CC2)n1Cc1ccccc1 was read as Calb FLC -2, T cruzi inh 3, LANA-H2B inh -4.8, RanGTP-Impb inh -0.2, UCH37 inh 1.1, Beta cell apopt -1, A1 inh -1.9 and B2AR ag -8.
`CCOC(=O)c1c(-c2ncc(C(F)(F)F)cc2Cl)noc1C` gave Calb FLC -3, T cruzi inh -25, LANA-H2B inh -8.9, RanGTP-Impb inh inconclusive, UCH37 inh 0.1, Beta cell apopt -6, A1 inh -0.1 and B2AR ag 0.
CCOc1ccc(N2C(=O)C(c3ccccc3)=C(c3nc4ccccc4s3)C2NC(C)=O)cc1 (stereo unspecified) was read as Calb FLC -2, T cruzi inh 30, LANA-H2B inh -0.8, RanGTP-Impb inh -0.2, UCH37 inh 5.5, Beta cell apopt -6, A1 inh 0.0 and B2AR ag -4.
`COc1c(S(=O)(=O)N2CCCCC2)ccc2c(S(=O)(=O)N3CCCCC3)cccc12` gave LANA-H2B inh 0.1, UCH37 inh 2.8, Beta cell apopt 3, A1 inh 0.2 and B2AR ag -3.
Screening COc1cc2c(cc1OC)CN(C(=O)CN1CCN(S(=O)(=O)c3ccccc3)CC1)CC2 returned Calb FLC 2, T cruzi inh -2, LANA-H2B inh 2.2, RanGTP-Impb inh 5.5, UCH37 inh -0.6, Beta cell apopt 0, A1 inh 0.9 and B2AR ag 12.
CC1=Nc2cc([N+](=O)[O-])ccc2NC(C)(C)C1 was read as Calb FLC -1, T cruzi inh 15, LANA-H2B inh 1.1, RanGTP-Impb inh -3.4, UCH37 inh 7.4, Beta cell apopt 0, A1 inh 0.2 and B2AR ag -4.
Screening CCCc1nc2c(nnn2Cc2ccccc2F)c(=O)[nH]1 returned Calb FLC -8, T cruzi inh -4, LANA-H2B inh 4.5, RanGTP-Impb inh 4.1, UCH37 inh 0.1, Beta cell apopt -1, A1 inh -0.4 and B2AR ag 1.
`COc1ccc(NC(=O)NCc2cccnc2)cc1` gave Calb FLC 3, T cruzi inh -7, LANA-H2B inh -3.1, RanGTP-Impb inh -2.8, UCH37 inh 2.3, Beta cell apopt 4, A1 inh -0.5 and B2AR ag -3.
COc1cccc(-n2nnc3c(=O)n(Cc4ccc(C)cc4)cnc32)c1 was read as Calb FLC 0, T cruzi inh 7, LANA-H2B inh -4.2, RanGTP-Impb inh -2.7, UCH37 inh 1.1, Beta cell apopt 1, A1 inh 0.1 and B2AR ag 0.
CCNC(=S)Nc1ccc(OCC)cc1 was read as Calb FLC -4, T cruzi inh -16, LANA-H2B inh 6.6, RanGTP-Impb inh 0.3, UCH37 inh 3.5, Beta cell apopt -6, A1 inh -0.7 and B2AR ag -2.
For O=C(NCCN1CCN(C(=O)c2ccc(F)cc2)CC1)C(=O)NCc1ccccc1 the results were Calb FLC 2, T cruzi inh -10, LANA-H2B inh -0.1, RanGTP-Impb inh -2.3, UCH37 inh -1.0, Beta cell apopt -4, A1 inh 0.5 and B2AR ag 1.

Assay outcomes: PubChem, several laboratories
